# Assay outcomes (PubChem)
# Biofilm kill mix = mixture kills Candida albicans biofilm cells; C. albicans biofilm persisters + clotrimazole, fluorescence viability; primary screen in compound mixtures of four per well; inhibition, % at 7.6 µM; actives 0.02% (n = 120,000);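 active = inhibition above 30.3% in the primary screen of four-compound pools, then above 30% when the compound was retested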;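 note: compounds exposed to preformed 24 h biofilms for 48 h; the number belongs to the whole pool; some results filed as inactive read as strong as hits; inactives centre near 12; 0% = biofilm with clotrimazole alone and 100% = kill control; retested singly at about 60 µM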
#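 Test system: C. albicans biofilms. Buffer or medium: RPMI/MOPS medium, pH 7.0. Timing: 48 h compound exposure at 37 °C. Technique: Alamar Blue fluorescence. Evaluation: percent inhibition of biofilm viability.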
# Numbers without * were called inactive. This is a subset. The share of hits here may be higher or lower than overall.
SMILES,Biofilm kill mix
CCc1ccc(C(=O)NNc2ccc(F)cc2)cc1,27
O=C(COC(=O)/C=C/c1ccccc1[N+](=O)[O-])NC1CC1,11
COc1ccc(C(=O)NCC2CCCO2)cc1S(=O)(=O)N1CCCc2ccccc21 (stereo not drawn),-4
COc1cc(C2CC(=O)C3=C(C2)Nc2ncnn2C3c2cccs2)cc(OC)c1OC (stereo not drawn),26
CCC(=O)C1CCCN(C(=O)c2ccc(OC3CCN(C(=O)c4cccnc4)CC3)cc2)C1 (stereo not drawn),7
Cc1ccsc1/C=C(\C(=O)c1ccc(OC(C)C)cc1)c1nc2ccccc2o1,10
Cc1cc(O)c(C(C)C)cc1C1(c2cc(C(C)C)c(O)cc2C)OC(=O)c2ccccc21,8
CCO[C@H]1OC(C(=O)N2CCOCC2)=C[C@@H](c2ccc(Br)cc2)[C@@H]1CCCO,11
OC(CNc1ccccc1)Cn1ccc2ccccc21 (stereo not drawn),6
Cc1nnc(N/N=C/c2cccc(OCc3ccc(Cl)c(Cl)c3)c2)n1N,16
COc1ccc(CNC(=O)CN(Cc2ccc(Cl)cc2)S(C)(=O)=O)cc1,14
CCOC(=O)c1c(N)sc2c(OCC)c(Br)ccc12,13
COC(=O)C1=C(COc2ccc(C=O)cc2OC)NC(=O)NC1c1cc(C)ccc1C (stereo not drawn),7
CCC(=O)NCC(=O)OCC(=O)c1ccccc1,3
C=CCn1c(SCC#N)nnc1-c1ccc2ncccc2c1,24
CCN(CC(=O)NCCc1ccc(Cl)cc1)Cc1nc2ccccc2c(=O)[nH]1,0
CCN1CCN(c2ccc(NC(=O)c3ccccc3F)cc2Cl)CC1,3
CC(C)CCNC(=O)c1ccc(Cl)c(NC(=O)Cc2ccccc2)c1,6
CC1(C)Cc2ccccc2C(/C(C#N)=N/O)=N1,16
Cc1ccc(-n2c(O)c(C=NC3CCS(=O)(=O)C3)c3ccccc3c2=O)c(C)c1 (stereo not drawn),16
CCCCN1C[C@H](O)[C@@H](O)[C@H](O)[C@H]1CO,6
CCOC(=O)c1cccc(NC(=O)c2ccccc2C)c1,-2
Cc1nc(SCC(=O)Nc2ccc3c(c2)OCCO3)nc(C)c1C,16
CCN(CC)CCNC(=O)c1cc2ccccc2nc1Cl,7
CC(=O)n1nc(-c2ccc(C)cc2)nc1NCc1ccc(F)cc1,-10

# Continuation:
SMILES,Biofilm kill mix
C/C(=N\NC(=O)c1ccccc1)c1ccccc1Br,2
Cc1ccc(C2Nc3cccc4cccc(c34)N2)s1,15
O=c1[nH][nH]cc1C=Nc1ccc(Oc2ccccc2)cc1,10
COc1ccc(-c2csc(NC(=O)COC(=O)c3ccc(Br)o3)n2)cc1,9
COc1cc(OC)cc(C(=O)N2CCN(C(=O)Cc3ccccc3)CC2)c1,9
Cc1ccc(NC(=O)CN(C)C(=O)Cn2ncc(Cl)c(Cl)c2=O)cc1,8
CC(=O)[C@H]1CC[C@H]2[C@@H]3CCC4=CC(=O)CC[C@]4(C)[C@H]3[C@H](O)C[C@]12C,15
O=C(CN1C(=O)S/C(=C/c2ccncc2)C1=O)N1CCOCC1,10
COc1ccc(O)c(C(=O)c2cc(C(=O)NCCc3ccccc3)c(=O)n(CCc3ccccc3)c2)c1,23
Cc1cc(C)n2nc(C(=O)N/N=C/c3c4ccccc4cc4ccccc34)nc2n1,18
Cc1ccc(NCC(=O)Nc2c(C)n(C)n(-c3ccccc3)c2=O)cc1S(=O)(=O)N(C)C,35
CN(C)c1ccc(C(=O)NCC2CCCO2)cc1 (stereo not drawn),14
CCCN(CCC)CCCNC(=O)c1cn(CC)c2ccc(S(=O)(=O)N3CCc4ccccc4C3)cc2c1=O,25
CCCNc1nc(-c2cc(-c3ccc(Cl)cc3)on2)cc(C(C)C)n1,15
Cc1nc2ccc(NC(=O)Cc3ccc4c(c3)OCCO4)cc2s1,13
CC1=C(C#N)C(c2cccnc2)C2=C(CCCC2=O)N1 (stereo not drawn),8
CS(=O)(=O)c1ccc(C(=O)OCc2nnc(-c3ccccc3)o2)cc1[N+](=O)[O-],29
O=C1c2ccccc2C(=O)N1Cc1ccccn1,2
COC(=O)Cn1c(=NC(=O)c2nc3ccccc3s2)sc2cc(S(C)(=O)=O)ccc21,-11
CCc1ccc(-n2c(Cc3ccccc3)n[nH]c2=S)cc1,19
CSc1nc2nccc(-c3ccc4c(c3)OCO4)n2n1,22
O=C(/C=C/c1ccc(Cl)cc1Cl)N1CCN(c2ccc([N+](=O)[O-])c(N3CCOCC3)c2)CC1,6
O=C(c1cccs1)N1CCCN(c2ncnc3scc(-c4ccccc4)c23)CC1,28
Cc1ccc(Cl)cc1N1CCN(Cc2nc3c(c(=O)[nH]c(=O)n3C)n2CCc2ccccc2)CC1,12
COc1ccc(-c2[nH]ncc2/C=N/NC(=O)c2cc(Br)ccc2O)c(OC)c1,3

# The last three records of the part above open the next one:
SMILES,Biofilm kill mix
O=C(c1cccs1)N1CCCN(c2ncnc3scc(-c4ccccc4)c23)CC1,28
Cc1ccc(Cl)cc1N1CCN(Cc2nc3c(c(=O)[nH]c(=O)n3C)n2CCc2ccccc2)CC1,12
COc1ccc(-c2[nH]ncc2/C=N/NC(=O)c2cc(Br)ccc2O)c(OC)c1,3
COc1ccc(C(=O)OCC(=O)Nc2cc(C)c(C)cc2[N+](=O)[O-])cc1,9
COC(=O)c1c(C)[nH]c(O)c1C=Nc1ccc(Oc2ccccc2)cc1,-3
CSc1ccccc1COC(=O)Nc1ccccc1C,12
Cc1ccccc1OCC(=O)Nc1cccc(C(=O)O)c1,-4
CCn1nc(C)c(CNC(=O)CC2C(=O)NCCN2CC(C)(C)C)c1C (stereo not drawn),0
Cc1[nH]c2ccccc2c1/C=N/Nc1ccccn1,10
Cc1cc(C)nc(NS(=O)(=O)c2cccs2)c1,17
CC1CC(C)(C)N(C(=O)NC2CCCCC2)c2ccccc21 (stereo not drawn),6
Cn1ncc(Cl)c1C(=O)Nc1sc2c(c1C(N)=O)CCC2,12
CCOc1cc(/C=C2/NC(=O)NC2=O)cc([N+](=O)[O-])c1O,5
Cc1cc(=O)oc2ccc(OC(=O)CN3C(=O)c4cccc([N+](=O)[O-])c4C3=O)cc12,15
Cc1ccc(NC(=O)Nc2cnccn2)cc1Cl,20
COc1cc(/C=N/n2cc(-c3ccccc3)[nH]c2=S)cc(OC)c1O,8
CCN(CC)c1ncc(C#N)c(N)n1,13
O=c1oc2ccccc2c(Nc2ccc3ncccc3c2)c1[N+](=O)[O-],20
O=C(CCc1ccccc1)NNC(=O)c1cccc(F)c1,10
CN1C(C(=O)Nc2ccccn2)=C(O)c2sccc2S1(=O)=O,16
Cc1c(NC(=S)NC(=O)COc2ccccc2)c(=O)n(-c2ccccc2)n1C,20
CC1CCCCN1Cc1ccc(N)cc1 (stereo not drawn),10
CCC(OC(=O)c1nsc(Cl)c1Cl)C(=O)NC(C)(C)CC (stereo not drawn),8
CC(C(=O)N=Nc1c(O)n(C)c2ccc(Br)cc12)n1cnc2ccccc2c1=O (stereo not drawn),7
COc1ccc(CC(=O)Nc2nc(-c3cc(OC)ccc3OC)cs2)cc1,16
O=C(Nc1cc(Br)ccc1O)c1cnn2c(C(F)F)cc(C3CC3)nc12,10
Cc1ncc([N+](=O)[O-])n1Cc1cccc(F)c1,21
O=C(COC(=O)c1cncc(Br)c1)NCc1ccc(Cl)cc1,17

# 26 entries already listed, sorted by length of the SMILES, largest number first:
SMILES,Biofilm kill mix
CC(=O)[C@H]1CC[C@H]2[C@@H]3CCC4=CC(=O)CC[C@]4(C)[C@H]3[C@H](O)C[C@]12C,15
O=C(/C=C/c1ccc(Cl)cc1Cl)N1CCN(c2ccc([N+](=O)[O-])c(N3CCOCC3)c2)CC1,6
CCCN(CCC)CCCNC(=O)c1cn(CC)c2ccc(S(=O)(=O)N3CCc4ccccc4C3)cc2c1=O,25
Cc1cc(=O)oc2ccc(OC(=O)CN3C(=O)c4cccc([N+](=O)[O-])c4C3=O)cc12,15
Cc1ccc(NCC(=O)Nc2c(C)n(C)n(-c3ccccc3)c2=O)cc1S(=O)(=O)N(C)C,35
CS(=O)(=O)c1ccc(C(=O)OCc2nnc(-c3ccccc3)o2)cc1[N+](=O)[O-],29
COc1ccc(C(=O)OCC(=O)Nc2cc(C)c(C)cc2[N+](=O)[O-])cc1,9
Cc1cc(C)n2nc(C(=O)N/N=C/c3c4ccccc4cc4ccccc34)nc2n1,18
Cc1ccsc1/C=C(\C(=O)c1ccc(OC(C)C)cc1)c1nc2ccccc2o1,10
Cc1c(NC(=S)NC(=O)COc2ccccc2)c(=O)n(-c2ccccc2)n1C,20
Cc1ccc(NC(=O)CN(C)C(=O)Cn2ncc(Cl)c(Cl)c2=O)cc1,8
COc1cc(OC)cc(C(=O)N2CCN(C(=O)Cc3ccccc3)CC2)c1,9
CCCNc1nc(-c2cc(-c3ccc(Cl)cc3)on2)cc(C(C)C)n1,15
O=C(COC(=O)/C=C/c1ccccc1[N+](=O)[O-])NC1CC1,11
CCCCN1C[C@H](O)[C@@H](O)[C@H](O)[C@H]1CO,6
CCN1CCN(c2ccc(NC(=O)c3ccccc3F)cc2Cl)CC1,3
Cn1ncc(Cl)c1C(=O)Nc1sc2c(c1C(N)=O)CCC2,12
O=c1[nH][nH]cc1C=Nc1ccc(Oc2ccccc2)cc1,10
CC1=C(C#N)C(c2cccnc2)C2=C(CCCC2=O)N1 (stereo not drawn),8
O=C(CCc1ccccc1)NNC(=O)c1cccc(F)c1,10
C/C(=N\NC(=O)c1ccccc1)c1ccccc1Br,2
Cc1cc(C)nc(NS(=O)(=O)c2cccs2)c1,17
CCc1ccc(C(=O)NNc2ccc(F)cc2)cc1,27
CCC(=O)NCC(=O)OCC(=O)c1ccccc1,3
OC(CNc1ccccc1)Cn1ccc2ccccc21 (stereo not drawn),6
CSc1ccccc1COC(=O)Nc1ccccc1C,12

# Returning to the listing, repeating the two entries before the break.
SMILES,Biofilm kill mix
Cc1ncc([N+](=O)[O-])n1Cc1cccc(F)c1,21
O=C(COC(=O)c1cncc(Br)c1)NCc1ccc(Cl)cc1,17
C[C@@H](C(=O)Nc1ccc2ccccc2c1)[C@H]1C[C@]1(C)[C@H](NC(=O)OCc1ccccc1)c1ccccc1,-3
O=C1CNC(=S)N1CCOc1ccccc1,18
Cn1cc(Br)c(C(=O)N2CCc3ccccc32)n1,10
CC(C)(C)C(=O)NC(=S)N1CCc2ccccc21,2
COc1ccccc1NS(=O)(=O)c1cccc(NC(=O)NCCCl)c1,12
Cc1nn(C)c(Cl)c1S(=O)(=O)N[C@@H](c1ccccc1)[C@]1(C)C[C@H]1[C@@H](C)C(=O)Nc1ccc2ccccc2c1,8
COc1cc(SC)ccc1C(=O)Nc1ccc(C)cc1,28
COCCn1nnnc1C(C(C)C)N1CCCC(C)C1 (stereo not drawn),22
Brc1ccccc1-c1nnc(COc2ncnc3ccccc23)o1,19
CCCOc1ccc(-c2c(C(=O)N/N=C/c3ccccc3)nnn2-c2nonc2N)cc1,25
CC(=O)/C(N)=N/Nc1cccc(Cl)c1,-2
CC1(CCc2ccccc2)NC(=O)N(CC(=O)Nc2ccc3c(c2)OCCO3)C1=O (stereo not drawn),11
O=c1c2c(nc3cc(-c4ccccc4Cl)[nH]n13)CCS2,6
NC(=O)COc1ccc(Nc2nnc(-c3ccc(O)cc3)c3ccccc23)cc1,27
O=C(NCC(c1ccc(F)cc1)N1CCOCC1)c1cc(F)c(F)c(F)c1F (stereo not drawn),20
COCCN(CC(=O)NCC1CCCO1)C(=O)CCC(=O)Nc1cc(C)ccn1 (stereo not drawn),15
COc1ccc(OC(=O)NCCc2ccccc2)cc1,19
COC(=O)Cc1c(O)ccn(Cc2ccc3c(c2)OCO3)c1=O,17
CSc1nc2c(c(=O)[nH]1)C(c1ccc(C(F)(F)F)cc1)CC(=O)N2 (stereo not drawn),6
O=C(CCCNC(=O)/C(=C/c1ccc(Br)cc1)NC(=O)c1ccccc1)OCc1ccccc1,19
Cc1ccc(NC(=O)C2CCN(c3cnccn3)CC2)cc1,11
COc1cccc(-n2nnnc2SCC(=O)Nc2ccc(C(C)=O)cc2)c1,11
CC(C)c1ccc(/C=C/C2=NNC(=O)CC2)cc1,15
Cc1ccc(NC(=O)COC(=O)Cc2ccsc2)cc1S(=O)(=O)N1CCOCC1,13
COc1ccc([N+](=O)[O-])cc1NC(=O)Cc1noc2ccc(C)cc12,-1

# Following part.
SMILES,Biofilm kill mix
COc1cccc(-n2ccnc2SCC(=O)N2CCCc3ccccc32)c1,5
CC(C)N1CCN(Cc2nc3c(s2)CCCC3)CC1CCO (stereo not drawn),11
COCCOC1CCN(Cc2cn(Cc3ccccc3)nc2-c2cc3ccccc3o2)CC1,13
CCOc1ccc(CC2CCC(=O)NC2=O)cc1 (stereo not drawn),11
Cc1ccc(-c2cc(C(=O)O)c3ccccc3n2)c(C)c1,10
CCc1ccc(CN(C)C(=O)CCc2nc3ccccc3n(-c3ccc(OC)cc3)c2=O)cc1,-11
